Bfl-1 A1 inh: inhibitors of the anti-apoptotic protein A1, read as caspase activation | MEF A1-2A-BIM cells, Caspase-Glo 3/7 luminescence, 3 h; percent of clofoctol response, vehicle zero | caspase activation, % (concentration not given with the values) | 330,000 tested, 0.066% active;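 active = over half of replicate activation scores above 10%, or exactly half above 10 with the replicate mean above 10; inconclusive = replicate mean below 10 yet half the replicates above 10; inactive = over half of replicates below 10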;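 note: wells of about 30 µL received 50 nL stock; many hits fall short of the cut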
LANA-H2B inh: blocks KSHV LANA binding to histone H2A/H2B | Q9QR71 | cell-free LANA-H2A/H2B peptide, fluorescence polarization | inhibition, % (test concentration not listed) | 320,000 tested, 0.6% active | AID 2629; in the data active = inhibition mostly above about 10%, no sharp cut-off; inactive = mostly below about 6.7%;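 note: stock transfer was 7.5 nL into about 10 µL; 0% = median of vehicle wells and 100% = median of positive control wells; one replicate is shown; the record names a cut of 25% in any replicate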
Calb FLC: C. albicans growth modulation with fluconazole. C. albicans CaCi-2 (fluconazole-resistant clinical isolate) + fluconazole, Alamar Blue growth, 48 h. growth inhibition, % (concentration not given with the values). 300,000 tested, 0.57% active. AID 1979;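 active = most replicates above 75%; inconclusive = exactly half above 75%; inactive = most below 75%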;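 note: all wells also contain fluconazole at 8 µg/ml as a sub-toxic cotreatment; 0% = median of DMSO wells and 100% = median of geldanamycin control wells; wells of about 8 µL received 7.5 nL stock; the first replicate is given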
Beta2AR agonist: activates human beta-2 adrenergic receptor causing internalization; P07550; 340,000 tested, 0.43% active; response, % (concentration not given with the values); Am2.2-beta2AR cells, FAP receptor internalization, flow cytometry; reference of the scale not given here;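 active = response above a set limit, near 3 SD of response in nonfluorescent compounds, cut at about 42% in these data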;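 note: stock transfer was 100 nL into about 11 µL; a reference agonist was the positive control; negative values mostly stem from fluorescent compounds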
Target sequence (P07550 whole entry, looked up): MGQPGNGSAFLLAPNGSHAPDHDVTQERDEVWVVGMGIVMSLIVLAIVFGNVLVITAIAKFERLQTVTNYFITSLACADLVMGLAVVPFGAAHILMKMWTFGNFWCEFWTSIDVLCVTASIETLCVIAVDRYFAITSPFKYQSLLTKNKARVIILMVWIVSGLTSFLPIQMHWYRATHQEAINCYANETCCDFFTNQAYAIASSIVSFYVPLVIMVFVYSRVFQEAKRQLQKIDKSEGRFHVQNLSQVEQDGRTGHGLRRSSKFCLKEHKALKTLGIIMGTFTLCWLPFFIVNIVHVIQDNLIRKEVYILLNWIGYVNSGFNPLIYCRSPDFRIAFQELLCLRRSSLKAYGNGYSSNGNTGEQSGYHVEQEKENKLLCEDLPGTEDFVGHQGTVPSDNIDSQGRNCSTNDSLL
Ecoli rRNA inh: inhibits bacterial ribosomal RNA function over humanized ribosomes; E. coli WT GFP vs humanized-ribosome RFP mutants, fluorescence, 24 h; hits give low values; DMSO median 0, no signal -100; GFP signal change (wild-type ribosome), % (concentration not given with the values); 350,000 tested, 1.6% active;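 active = significant combined selectivity score with lowered wild-type GFP, culture density cut under 30%, mutant RFP and density less affected; inactive = any of these conditions unmet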; note: one replicate is shown; some compounds called inactive have numbers as strong as hits
ALR H2O2 inh: blocks human ALR sulfhydryl oxidase activity. purified ALR, DTT oxidation, H2O2 HRP-luminol luminescence. inhibition, % (test concentration not listed). AID 485317. 290,000 tested, 3.8% active. P55789;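 active = mean and each replicate at 75% or more; inconclusive = only one of the two met; inactive = neither met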;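 note: stock transfer was 7.5 nL into about 7.5 µL; 0% = neutral wells and 100% = wells with inactivated enzyme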
Target sequence (P55789 whole entry, looked up): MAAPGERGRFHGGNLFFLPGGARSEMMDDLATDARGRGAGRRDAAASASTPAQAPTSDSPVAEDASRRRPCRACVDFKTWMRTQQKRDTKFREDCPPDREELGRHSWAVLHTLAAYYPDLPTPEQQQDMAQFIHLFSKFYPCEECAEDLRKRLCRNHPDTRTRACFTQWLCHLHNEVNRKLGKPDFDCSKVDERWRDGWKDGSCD
Beta apoptosis: blocks beta cell apoptosis; protection from apoptosis, % (no concentration beside the values); INS-1E cytokine-induced death, ATP luminescence, 48 h; percent of positive-control rescue, neutral wells zero; 300,000 tested, 0.8% active;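 active = all replicates at 75% or more, or half of them and the mean; inconclusive = half reach 75% but not the mean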;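 note: 0% = cytokine-treated negative control wells and 100% = positive control rescue; higher means more ATP so stronger rescue from cytokine killing; wells of about 40 µL received 100 nL stock; the first replicate is given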
T cruzi inh: T. cruzi replication inhibition | T. cruzi beta-gal in NIH3T3, luminescence, 90 h | inhibition, % (test concentration not listed) | 300,000 tested, 1.4% active | AID 1885;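 active = mean inhibition across valid replicates above about 55%, limit read from the data; inconclusive = mean below that limit but half or more replicates reach it; inactive = mean below it, under half of replicates reach it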;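 note: signal also drops with host cell toxicity which is not excluded here; 0% = plate median of DMSO wells and 100% = zero luminescence signal; higher percent means less beta-gal luminescence so fewer parasites; stock transfer was 50 nL into about 50 µL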
Ecoli rRNA inh OD600: recorded beside Ecoli rRNA inh, whose call it bears; OD600 change, %; measured here: OD600 growth;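 optical density of the mix in the first replicate; 0 = DMSO median and -100 = no signal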
Ecoli rRNA inh RFP: second read-out of Ecoli rRNA inh, no call of its own (marks repeat the call); RFP signal change, %; measured here: RFP humanized mutant strains;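 first replicate; 0 = DMSO median and -100 = no signal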
Active calls of the source: *; ? = inconclusive; . = no result given.

nr	smiles	Bfl-1 A1 inh	LANA-H2B inh	Calb FLC	Beta2AR agonist	Ecoli rRNA inh	Ecoli rRNA inh OD600	Ecoli rRNA inh RFP	ALR H2O2 inh	Beta apoptosis	T cruzi inh
1	COc1cc(C(=O)NNC(=O)c2ccc(S(=O)(=O)N3CCCCC3)cc2)cc(OC)c1OC	0.8	-4.6	-12	-1	7	2	-0.2	-2	-1	-13
2	Cc1ccc(CC(=O)O/N=C(\N)c2ccccn2)cc1	-2.9	-1.0	-7	-7	-2	3	-0.9	0	-4	0
3	CC(=O)NC1CC2CCCC(C1)N2Cc1ccc(C)cc1 (configuration not stated)	0.4	0.6	13	-3	5	17	3.7	-6	0	17
4	Cc1nc(NC(=O)c2ccc(Br)s2)sc1C(=O)N(C)C	-2.8	-2.7	33	-1	.	.	.	1	-4	-7
5	COc1ccc(CNc2ncnc3sccc23)cc1	-1.1	-2.1	-11	8	-3	-19	-3.9	-3	75*	-31
6	O=C(NC(Cc1ccccc1)C(=O)O)c1ccc(S(=O)(=O)N2CCOCC2)cc1 (configuration not stated)	0.5	0.9	17	-1	.	.	.	-3	-3	-10
7	COc1ccc(N2CCN(C(=O)c3ccc(Oc4ccc(C(F)(F)F)cn4)cc3)CC2)cc1	0.2	-0.3	-9	-7	.	.	.	4	9	21
8	COc1ccc(-n2cc(CN3CCCC3)c(-c3cccc(F)c3)n2)cc1	0.6	-3.4	-2	6	-7	-8	1.7	-2	6	5
9	Cc1ccc(S(=O)(=O)N2CCN(C(=O)COC(=O)/C=C/c3ccccc3F)CC2)c(C)c1	0.4	1.2	.	2	0	-12	0.2	.	-1	.
10	COC(=O)CNc1nc(OC)nc(N(C)C)n1	1.2	1.9	1	-6	.	.	.	0	-6	-5
11	CCOC(=O)C1CCN(C(=O)C2CC(=O)N(c3ccc4c(c3)OCCO4)C2)CC1 (configuration not stated)	1.2	-0.6	-11	1	9	9	2.9	-12	-4	-4
12	FC(F)(F)c1ccc2c(c1)n(Cc1ccccc1)c1[n+]2CCCCC1	0.5	1.8	-68	-2	5	-1	0.8	2	-6	0
13	Cc1cnc(NC(=O)CN2C(=O)C3CC=CCC3C2=O)s1 (configuration not stated)	0.7	1.6	1	-2	.	.	.	-6	3	8
14	Cc1ccc(S(=O)(=O)N(C)Cc2ccc(C(=O)N/N=C3\CCCC(=O)C3)cc2)cc1	-0.1	-3.3	1	-4	-1	1	-4.0	?	0	9
15	CC(=O)NCc1ccc(C(=O)COC(=O)COc2ccccc2)s1	-0.6	0.2	.	9	7	10	-4.4	-17	-4	.
16	Cc1nn(C)cc1CNC(=O)c1cc2n(n1)C(C(F)(F)F)CC(c1cccs1)N2 (configuration not stated)	0.0	-2.5	0	-6	-9	-14	-1.3	21	9	-13
17	OCC(CO)(CO)NCc1ccc(-c2ccccc2)cc1	0.5	-2.4	3	0	.	.	.	-1	0	-11
18	C/C(=N\NC(=O)C1CCCN(S(=O)(=O)c2ccccc2)C1)c1ccccn1 (configuration not stated)	0.3	1.0	7	-4	.	.	.	3	61	36
19	COc1cccc(CN2CCC(C(=O)N3CCC(C)CC3)CC2)c1	0.1	-3.8	-6	-7	13	7	-0.1	-3	2	-2
20	Cc1oc(-c2cccs2)nc1CN1CCN(Cc2ccc(F)c(F)c2)C(CCO)C1 (configuration not stated)	0.2	1.7	84*	-5	0	-4	15	-2	1	12
21	COc1cccc(-c2nn(-c3ccc(C)cc3)cc2C(=O)N2CCN(C3CCS(=O)(=O)C3)CC2)c1 (configuration not stated)	0.6	15	.	4	-5	1	1.5	0	-4	.
22	CC1=C(C(=O)Nc2ccccc2)C(c2ccc(C)o2)N2C(=O)CSC2=N1 (configuration not stated)	0.0	-0.1	6	.	.	.	.	1	-4	-8
23	COc1ccc2c(c1)c(CCN1C(=O)c3ccccc3C1=O)cn2C(=O)c1ccco1	-4.9	-0.6	-6	1	11	2	-6.2	-7	-4	8
24	CCn1nccc1C(=O)Nc1ccccc1OC	0.9	-2.8	-13	-2	3	4	-1.1	-8	0	-8
25	O=C(/C=C/c1ccccc1)N1CCN(c2ccccn2)CC1	-0.5	0.7	?	-4	.	.	.	7	-4	-8
26	Cc1ccc2nc(Cl)c(/C=N/Nc3ccc(C(=O)O)cc3)cc2c1	-6.6	3.4	-5	22	10	-5	3.2	.	4	0
27	Cc1onc(-c2ccccc2)c1C(=O)N/N=C/c1cc(Br)c(O)c(Br)c1	.	.	-1	3	0	-1	0.3	.	.	-1
28	Nc1c(C(=O)NCc2ccc(F)cc2)c2nc3ccccc3nc2n1CCCN1CCOCC1	0.0	-0.3	2	22	.	.	.	-10	-8	24
29	COc1cc(-c2nc(=S)[nH][nH]2)cc(OC)c1OC	-0.5	-3.1	-17	-5	.	.	.	99*	-6	-12
30	O=C(Nc1cc(Cl)ccc1Cl)c1ccco1	0.2	-2.6	-7	-6	8	8	-2.1	-12	-6	-9
31	CCC(C)(C)NC(=O)CN(C(=O)CNS(=O)(=O)c1ccccc1)c1ccccc1	0.6	0.8	-2	10	.	.	.	-2	-3	2
32	CCc1cccc(NC(=O)C2CC2c2ccccc2)c1 (configuration not stated)	-3.4	-3.4	16	-11	-1	-4	-5.8	-17	.	14
33	Cc1nn(C(=O)c2nn(C)cc2Cl)c(C)c1Br	0.2	-0.5	-20	4	23	10	-0.7	4	0	-4
34	COc1ccc(-c2noc(CCCC(=O)NCC3CCCO3)n2)cc1 (configuration not stated)	-0.3	-2.8	-3	-3	3	2	-1.4	-7	.	1
35	CCCCOc1ccc(-c2nnn(CC(=O)c3c[nH]c4ccccc34)n2)cc1	2.2	1.5	-3	-3	.	.	.	3	-6	5
36	COc1ccc(OC)c(C(=O)c2ccc(C(=O)N3CCCCC3)cc2)c1	0.8	-0.7	4	1	.	.	.	-16	2	4
37	CCc1nnc(NC(=O)C2CC(=O)N(Cc3ccccc3)C2)s1 (configuration not stated)	1.0	1.6	5	2	22	17	1.7	-2	-3	-14
38	CC(C)[C@H](NC(=O)[C@@H]1Cc2c([nH]c3ccccc23)C2c3ccccc3C(=O)N21)C(=O)N1CCC[C@@H]1C(=O)O (some centres not stated)	-0.1	0.1	8	12	1	3	0.6	3	4	-11
39	CCOC(=O)[C@H]1[C@H]2COc3ccc(C)cc3[C@@H]2N2C(=O)[C@@H](C)NC(=O)[C@@]12C	-0.5	1.1	.	0	0	-7	-0.5	0	-2	.
40	Cc1oc(-c2ccc(Cl)cc2)nc1CS(=O)CC(=O)NCCCN(C)C1CCCCC1 (configuration not stated)	0.4	1.3	9	3	.	.	.	99*	-2	40
41	CC(NC(=O)c1c(O)c2ccccc2n(C)c1=O)c1ccccc1 (configuration not stated)	1.5	-1.2	3	-4	0	3	0.1	3	1	14
42	Cc1ccc(C)c(NC(=O)C2CCCN2C(=O)NC2CCCCC2)c1 (configuration not stated)	0.8	0.6	-38	-3	17	7	2.1	-11	-5	-9
43	CCOC(=O)Cc1csc(NC(=S)NC(=O)c2ccccc2)n1	0.2	2.7	33	4	8	10	3.3	16	-7	18
44	Cc1ccccc1C(=O)Nc1nnc(CC(=O)N/N=C/c2ccncc2)s1	0.2	-2.5	0	-10	13	24	12	1	-9	-10
45	O=C(NC1CCCCCCC1)c1cnccn1	0.0	-1.1	-1	4	.	.	.	-20	0	2
46	CC(=O)Nc1ccc(NC(=O)C(C)c2cccc(C(=O)c3ccccc3)c2)cc1 (configuration not stated)	0.7	-7.2	7	2	.	.	.	-3	-7	-5
47	CN(C1=NC(=O)C(CC(=O)Nc2ccc(Br)cc2)S1)c1ccc(O)cc1 (configuration not stated)	0.3	-3.9	-3	-6	.	.	.	-6	3	-22
48	COc1ccc(NC(=O)COC(=O)C23CC4CC(CC(Cl)(C4)C2)C3)c(OC)c1	-0.3	171*	2	-1	-3	-10	-0.3	-10	-4	3
49	CCOC(=O)c1[nH]c2ccc(OC)cc2c1NC(=O)c1ccc2c(c1)OCO2	0.8	-0.9	10	5	.	.	.	31	4	33
50	O=C(NC1CCN(c2ncccn2)CC1)c1ccccc1F	0.3	1.8	7	-2	10	13	1.4	.	4	-7
51	CCCn1c2ccccc2c2nnc(SCc3[nH]c(=O)[nH]c3C(=O)CCCCC(=O)OCC)nc21	-0.2	1.4	2	6	.	.	.	.	-6	27
52	COc1ccc(CN2CC(=O)N3[C@H]4c5ccccc5OC[C@@H]4[C@H](c4ccccc4)[C@]3(C)C2=O)cc1	-0.4	-13	.	-5	15	-1	13	-9	5	.
53	CC(C)C[C@H](NC(=O)c1nc[nH]c1C(=O)NC1CCNCC1)C(=O)OCc1ccccc1	0.3	-1.9	6	-2	0	-6	6.1	.	-4	-5
54	CCC(=O)Nc1ccc(NC(=O)c2ccc3c(c2)OCO3)cc1	-7.7	-1.3	0	-6	.	.	.	1	-5	2
55	Cc1ccc(/C=N/N2C(=O)c3ccccc3NC2c2ccc(C)cc2)cc1 (configuration not stated)	-2.3	1.4	-5	3	.	.	.	0	12	-27
56	CC1CCN(c2ncnc3ccccc23)CC1	-0.2	3.5	-44	-5	.	.	.	.	18	2
57	COc1cc(CC(=O)OCC(=O)NCCc2ccc(S(N)(=O)=O)cc2)cc(OC)c1OC	0.9	-286	.	-6	10	5	0.9	.	-1	.
58	Cc1ccccc1OCC(=O)O/N=C(\N)Cc1ccc(Cl)cc1	-0.1	2.2	-5	2	.	.	.	-7	0	0
59	CC(C)(C)c1ccc(OCc2ccc(C(=O)Nc3cccnc3)o2)cc1	-0.8	0.2	7	16	-29	-51	-7.2	-4	0	6
60	CSc1ccccc1NC(=O)c1csc(C)c1	-1.1	-3.6	-6	-4	2	4	-0.8	2	-12	2

Next structures:
nr	smiles	Bfl-1 A1 inh	LANA-H2B inh	Calb FLC	Beta2AR agonist	Ecoli rRNA inh	Ecoli rRNA inh OD600	Ecoli rRNA inh RFP	ALR H2O2 inh	Beta apoptosis	T cruzi inh
61	O=C(Oc1ccc2ccc(O)cc2c1)c1ccccc1Cl	-1.7	1.3	13	-7	-56	-79	-15	7	.	-30
62	CC(C)(C)OC(=O)NCC(=O)NCC(=O)OCc1ccccc1	-0.1	5.0	-9	-1	.	.	.	-4	-1	0
63	Cc1ccc(-c2nc(N)n(C(=O)Cc3ccccc3)n2)cc1	0.2	0.6	34	-7	.	.	.	-3	5	-2
64	CCN(CC)CCNC(=O)C12CC3CC(C)(CC(C)(C3)C1)C2	0.8	-4.9	-20	-3	.	.	.	-11	-1	21
65	O=C(O)CN1C(=O)CCS(=O)c2ccccc21 (configuration not stated)	1.1	1.0	-1	9	6	1	-0.6	3	.	0
66	CN(CCc1ccccn1)c1ncnc2[nH]ncc12	-2.3	6.7	.	-4	.	.	.	-19	-8	.
67	COc1ccc(CN(C)CC(=O)Nc2cc(OC)c([N+](=O)[O-])cc2C)c(OC)c1	-0.8	0.1	-3	-20	.	.	.	-21	1	20
68	CC(=O)NN1C(=O)/C(=C/c2ccc(Br)o2)SC1=S	-0.4	-11	-4	-2	.	.	.	-3	3	13
69	COC(=O)c1nccc2c1[nH]c1ccccc12	0.2	2.7	-5	-2	.	.	.	-31	3	-14

Only part of the results is shown (hit frequency here may not be typical).
